CtBP-E1A inh: CtBP/E1A binding inhibition | 0.49% of 340,000 active | AlphaScreen GST-E1A/His-CtBP binding, 1536-well; active compounds read low; control for the full effect not named in the record | AID 651724 | activity change, % (test concentration not listed); in the data active means activity change below about -65%; inconclusive means about -30% to -65%; inactive means above about -30%; note: % is set by controls: 0 for no effect and ±100 for the full control effect
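Steps: dispense buffer (Tris pH 8.0, NaCl 300 mM, TCEP 1 mM, BSA, Tween 20); add 5X protein mix (GST-E1A, His-CtBP, 125 nM each); pin 23 nL compound; 2 h at 37 °C, dark; add 5X beads (50 ug/mL); 1 h; read.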
TRPV1 PAM: enhances activation of the human vanilloid receptor TRPV1; Q8NER1; TRPV1-expressing cells, Fluo-8 calcium influx, capsaicin EC20 potentiation; host cell line not named in the record; control for the full effect not named in the record; potentiation, % at 8.33 µM; 0.02% of 320,000 active; AID 540277; active means potentiation above 80%; inconclusive means 30% to 80%; inactive means below 30%; note: 0% is about no effect
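Cells expressing TRPV1 were dye-loaded with Fluo-8 and read kinetically: 10 s baseline, 3 min after compound (agonist portion), then 2 min after EC20 capsaicin (allosteric enhancer portion). Calcium-bound dye fluorescence at 480/520 nm.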
Six1-Eya2 inh: blocks human Six1 binding to Eya2; AlphaScreen GST-Six1/His-Eya2 binding, biochemical; active compounds read low; control for the full effect not named in the record; activity change, % (test concentration not listed); 0.56% of 360,000 active; in the data active = activity change below about -65%; inconclusive = about -30% to -65%; inactive = above about -30%; note: % is set by controls: 0 for no effect and ±100 for the full control effect
Target sequence (O00167 whole entry, looked up): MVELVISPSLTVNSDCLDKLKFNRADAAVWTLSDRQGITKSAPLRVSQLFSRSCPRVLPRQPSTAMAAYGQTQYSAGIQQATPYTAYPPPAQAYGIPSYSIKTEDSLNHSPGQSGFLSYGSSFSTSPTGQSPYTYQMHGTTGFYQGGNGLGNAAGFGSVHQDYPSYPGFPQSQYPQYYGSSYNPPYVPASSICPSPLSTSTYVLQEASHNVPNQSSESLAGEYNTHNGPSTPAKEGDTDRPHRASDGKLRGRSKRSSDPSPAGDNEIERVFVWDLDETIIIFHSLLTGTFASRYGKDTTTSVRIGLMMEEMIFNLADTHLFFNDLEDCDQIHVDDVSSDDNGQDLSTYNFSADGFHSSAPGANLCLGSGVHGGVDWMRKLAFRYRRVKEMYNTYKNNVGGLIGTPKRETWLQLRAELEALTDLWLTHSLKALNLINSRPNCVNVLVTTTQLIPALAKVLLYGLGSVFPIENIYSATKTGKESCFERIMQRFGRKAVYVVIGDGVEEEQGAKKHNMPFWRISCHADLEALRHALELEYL
Target sequence (Q15475 whole entry, looked up): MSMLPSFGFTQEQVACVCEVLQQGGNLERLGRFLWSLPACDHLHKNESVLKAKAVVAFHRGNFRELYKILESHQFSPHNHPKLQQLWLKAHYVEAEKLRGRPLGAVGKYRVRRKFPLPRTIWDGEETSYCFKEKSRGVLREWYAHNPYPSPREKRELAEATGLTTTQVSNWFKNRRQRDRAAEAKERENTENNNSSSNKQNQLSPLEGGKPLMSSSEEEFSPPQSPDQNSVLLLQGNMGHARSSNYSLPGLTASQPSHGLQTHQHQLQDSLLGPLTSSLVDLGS
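Compounds are tested against tagged Six1 and Eya2 proteins bridged by glutathione donor and nickel acceptor beads; after a one-hour incubation at 37 °C without light, AlphaScreen emission is recorded.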
PINK1 modulator: PINK1 expression modulation; PINK1 immunofluorescence, high-content cytometry, 24 h; Potency, µM (doses to about 76.6 µM), without a hit: at the highest dose activation (PINK1 increase), hits mostly activators; 0.2% of 410,000 active; active = well fitted activation curve with a large enough effect; inconclusive = small, poorly fitted or top-dose-only effect; inactive = flat fitted curve, though single readings scatter; cell line not stated here;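 note: potency is the fitted concentration of half-maximal effect; % of control where 0% means no effect; nearly all actives have a fitted effect of over 65% in size; a mitochondrial uncoupler was the plate control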
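Cells are seeded, rested 12 hours, then given compound at five concentrations or DMSO for 24 hours. After fixation, blocking and antibody staining, PINK1 amount and mitochondrial localization are scored; CCCP serves as control.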
D2 PAM: potentiates the human D2 dopamine receptor allosterically | DiscoveRx D2 beta-arrestin cells, luminescence, 90 min; 100% = 57 uM dopamine signal | potentiation, % (concentration not given with the values) | 0.23% of 360,000 active | AID 624464; active = potentiation of 50% or more; inconclusive = 30% to 50%; inactive = 30% or less;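 note: compound concentration not given in the record; tested on top of an EC20 dose of dopamine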
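PathHunter beta-arrestin assay in DiscoveRx D2 cells. Compounds were added with an EC20 of dopamine (50 nM final) for 90 min at 37 deg C. Luminescence was read 1 h after detection reagent, with 57 uM dopamine as the EC100 control.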
Sfp inh: Sfp phosphopantetheinyl transferase inhibition. 3.5% of 310,000 active. AID 1490. Potency, µM, inactives show max response, negative = inhibition, actives largely listed as inhibitors. Biochemical Sfp PPTase activity, qHTS; active = well fitted inhibition curve with a large enough effect; inconclusive = small, poorly fitted or top-dose-only effect, or another doubt; inactive = no such curve, though single readings can be large or run the other way;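 note: the enzyme is Sfp with the accession as filed and its product quenches rhodamine fluorescence; potency is the fitted concentration of half-maximal effect; 0% = enzyme reaction without inhibitor and -100% = no enzyme wells; top concentration of the series not given in the record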
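Fluorescence-quenching assay: 15 nM Sfp-PPTase preincubated 15 min at room temperature with compound, then 5 uM rhodamine-CoA and 12.5 uM BHQ-2-labelled YbbR peptide added. Fluorescence (ex 525/em 598 nm) read at start and after 30 min; difference gives rate.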
D2 agonist: activates the human D2 dopamine receptor | P14416 | DiscoveRx PathHunter D2 beta-arrestin, luminescence, 90 min; 100% = 57 uM dopamine signal | activation, % (concentration not given with the values) | 0.084% of 360,000 active | AID 624465; in the data active = activation above about 40%; inconclusive = about 15% to 40%; inactive = below about 15%; note: compound concentration not given in the record; the text of the record calls up to 30% inactive
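DiscoveRx PathHunter D2 beta-arrestin cells (2,100/well) attached overnight, then compound-stimulated 90 min at 37 C in HBSS/10 mM HEPES/0.1% Tween-20 buffer; beta-galactosidase complementation read by luminescence after 1 h at ambient temperature. Dopamine 57 uM final (EC100) as control.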
* = called active by the depositor; ? = inconclusive; · = not tested or not shown; & = joins results of further samples; [ ] = another dose, or the depositor's remark. The order is random. About 3.7% of those tested had a hit in this group.

molecule	Six1-Eya2 inh	D2 PAM	Sfp inh	TRPV1 PAM	D2 agonist	CtBP-E1A inh	PINK1 modulator
COc1ccc(CNc2ccc(C)c(C)c2)c(OC)c1OC	?	-14.0	15.6%	?	3.0	?	1.5%
C=CCC(C(=O)c1ccccc1)[N+](C)(C)CC=C (stereo not drawn)	3.0	-6.9	5.8%	-6.7	-3.4	-0.6	-1.2%
COCCCNC(=O)CC1C[C@H](C(=O)N2CCCCC2)[C@@]2(CCc3ccccc3)c3[nH]c4ccccc4c3CCN2C1=O (stereo partly drawn)	0.3	-10.3	·	·	-0.9	2.8	-0.1%
CCC1(c2ccc(C)cc2)NC(=O)N(CC(=O)Nc2cccc(S(=O)(=O)N3CCCC3)c2)C1=O (stereo not drawn)	-0.7	-3.2	·	-10.7	11.4	-10.5	-0.1%
Cc1cc(C)n(C2CC(=O)N(c3ccccc3)C2=O)n1 (stereo not drawn)	2.4	-2.3	-6.6%	-24.7	2.3	33.5	0.7%[38.3 µM]
CC/C(=N/NC(=O)CCC(=O)Nc1ccccc1OC)c1ccccc1	8.0	3.3	-7.8%	0.5	-2.8	7.3	1.4%
CC(C)CN1CCC(=O)N(CCSc2ccc(Br)cc2)CC1	-9.3	-21.5	5.7%&-0.8%	-14.0	-2.2	-20.2	1.4%
COc1ccc(CCn2c(SCC(=O)Nc3cc(C)on3)nc3ccsc3c2=O)cc1OC	-1.5	1.6	-0.1%	4.0	-1.7	-1.9	27.6%[38.3 µM]
CCOc1ccc(C(=O)NCC(=O)N2CCN(C/C=C/c3ccccc3)CC2)cc1OCC	1.3	-16.7	·	-25.0	4.3	-3.1	-0.7%
O=C(NCc1ccco1)C(c1ccncc1)N(CCC1=CCCCC1)C(=O)Cn1nnc2ccccc21 (stereo not drawn)	-16.1	-42.9	-27.2%	4.3	-1.3	-4.4	?
COc1cc(C(=O)OCC(=O)c2cc(C)n(CC3CCCO3)c2C)ccc1OCC(=O)N1CCOCC1 (stereo not drawn)	-9.2	-0.3	·	·	3.4	3.1	1.3%
Cc1cc(Br)ccc1NC(=O)CN(C)C(=O)CN1C(=O)NC2(CCCC2)C1=O	2.5	-4.0	·	-0.6	-6.3	3.9	-0.2%
Cc1ccc(NC(=O)COC(=O)CCc2ccc(S(=O)(=O)N3CCOCC3)cc2)cc1C	-1.5	-0.6	22.9%	26.4	4.0	-18.1	1.1%
Cc1cccc(COc2ccc(/C(O)=C3\C(=O)C(=O)N(CCN(C)C)C3c3ccncc3)cc2)c1 (stereo not drawn)	5.0	9.4	0.2%	6.7	0.0	-1.4	0.5%
COC(=O)CN(c1nc(C)c(Cl)c(OC)n1)S(=O)(=O)c1ccc(C)cc1	-2.6	-11.4	0.4%	-5.9	-4.9	-0.2	1.7%
CCOC(=O)C1=C(c2ccccc2)N=C2SCC(=O)N2C1c1ccc2c(c1)OCO2 (stereo not drawn)	4.7	1.1	-5.1%	12.6	-0.7	-1.5	1.8%
COC(=O)c1[nH]c2cccc(OC)c2c1NC(=O)C(C)N1CCC(C)CC1 (stereo not drawn)	0.5	-5.8	6.8%	-11.4	-2.2	-2.4	-3.7%[38.3 µM]
Cc1nnc(SCC(=O)Nc2ccc(F)cc2)n(N)c1=O	2.1	-15.6	5.5%	-1.0	1.9	-2.2	-0.8%
CCCCC(=O)Nc1ccc(C(=O)c2ccccc2)cc1	8.3	-2.0	-3.4%	-17.7	-0.8	-9.4	-0.7%
CCOC(=O)c1ccccc1NC(=O)c1ccccc1N(C)S(C)(=O)=O	6.7	3.1	9.7%	1.3	-3.5	18.6	3.0%
COc1cc(NC(=O)Cc2cccc3ccccc23)c(C(=O)O)cc1OC	-3.2	-2.0	-1.3%	10.6	0.2	6.7	4.1%
CCOC(=O)c1[nH]c(C)c(C(=O)NCCc2ccc(OC)cc2)c1C	-2.6	-8.5	3.6%	8.8	-1.0	-1.0	0.2%[38.3 µM]
Clc1ccc(CSCCc2ccncc2)cc1	-2.4	-9.1	-18.9%	-18.4	0.6	-2.2	-0.4%
CC1CC1C(=O)Nc1cc(S(=O)(=O)N2CCOCC2)ccc1N1CCCC1 (stereo not drawn)	-0.9	-5.0	21.7%	-7.2	-1.6	0.0	0.5%
Cc1ccc(SCC(=O)c2ccc[nH]2)cc1	-3.7	-1.2	-1.8%	-9.7	-3.4	0.8	4.0%
NC(=O)N1CCc2ccccc21	12.6	-2.3	17.7%	1.0	-3.2	0.0	1.7%
CCCCCCn1c(=O)n2n(c1=O)C[C@]1(OC(=O)NCc3ccc(OC)c(OC)c3)CN(S(=O)(=O)c3ccc(C)cc3)C[C@]1(O)C2	-1.8	1.8	·	·	-6.9	1.6	2.2%
O=C(CN1CCN(c2ccccc2)CC1)NC(=O)NCc1ccccc1	-3.9	-4.2	·	-13.0	-1.9	-0.6	0.2%
CCOc1ccc(NC(=O)c2ccco2)cc1S(=O)(=O)N1CCCC1	-3.2	-30.3	·	-7.0	-4.8	13.2	-1.2%
CC1(C)NC(=O)N(CC(O)CNC23CC4CC(CC(C4)C2)C3)C1=O (stereo not drawn)	3.4	-5.2	14.9%	2.5	1.8	7.7	-1.4%
COc1ccc(CCNC(=S)N2CCN(S(=O)(=O)c3ccccc3F)CC2)cc1	-9.5	-6.9	8.9%	-4.6	0.2	-1.0	-0.2%
C=CCOc1ccc(/C(O)=C2\C(=O)C(=O)N(CCOC)C2c2cccnc2)cc1 (stereo not drawn)	-1.2	6.8	1.9%	-12.7	-1.9	12.2	-1.0%[38.3 µM]
CCOc1ccc(N(C)S(=O)(=O)c2ccc(C)c(C(=O)N3CCN(Cc4ccc5c(c4)OCO5)CC3)c2)cc1	-14.7	-12.7	·	·	8.4	-2.3	0.7%
Cc1ccc(C(=O)NCCCNC(=O)c2ccc(Cl)cc2)cn1	1.2	-7.6	22.2%	1.0	-2.6	-4.4	1.7%
Cc1ccccc1NC(=S)NN1CCN(C)CC1	-4.6	-11.9	0.4%	1.1	-3.7	1.1	1.1%
CCC1(C)Cc2ccccc2-c2nc(NCCO)n(-c3ccc(C)cc3)c(=O)c21 (stereo not drawn)	-1.1	-30.6	3.0%	-6.6	-8.1	10.8	0.4%
COc1ccc(Cn2nnnc2C(c2ccc(F)cc2)N2CCN(C3CCCC3)CC2)cc1 (stereo not drawn)	-2.3	-22.1	8.0%	-3.4	-3.5	-11.8	-1.0%
C=CCN1N=C(/C=C/c2ccc(C)cc2)CCC1=O	4.6	-23.9	4.3%	-21.0	5.3	7.3	-1.6%
COc1ccc(CCC(=O)NNC(=O)Nc2ccccc2Cl)cc1	2.6	-8.9	10.7%	2.7	-3.1	-4.5	2.3%
Cc1cccc(OCCCC(=O)NNC(=O)c2cccc(N(C)C)c2)c1	-2.0	1.6	·	·	-0.2	-4.0	-2.3%
COc1ccc(CN2CCN(C(=O)c3cccc4ccccc34)CC2)cc1Br	-14.3	-16.6	56.2µM*	18.6	3.7	-16.0	-0.5%
O=C(C1=NN[C@@H]2C(=O)N(c3cccc(F)c3)C(=O)[C@H]12)c1ccc2ccccc2n1	2.9	-7.4	18.6%	0.2	-5.0	-22.4	0.0%
O=C(CCSc1nc(-c2ccco2)cc(C(F)(F)F)n1)NCCN1CCOCC1	4.8	-3.8	4.7%	-5.9	-2.9	0.0	1.5%
COC(=O)c1ccc(N=Nc2c(C)[nH]n(-c3ccccc3)c2=O)cc1	-27.8	-33.2	-5.2%	-0.4	-6.7	·	4.6%
CC1CCN(S(=O)(=O)c2ccc(NC(=O)c3ccccc3F)cc2)CC1	3.7	-0.5	14.4%	1.5	-2.1	3.3	3.8%
N#C/C(=C/c1ccc(N2CCCCC2)cc1)c1cccc(F)c1	-4.0	-13.0	-8.5%	1.1	-3.5	10.5	?
N#CC1=C(N)NC(SCc2ccccc2)=C(C#N)C12CCCC2	-9.0	-9.6	-0.9%	1.0	-0.6	-8.9	-2.1%
COc1cccc(N2CCN(C(=O)CCSCc3ccccc3F)CC2)c1	-23.8	-4.0	0.4%	-6.5	-2.6	-6.5	1.1%&1.7%
CCC(Oc1ccccc1)C(=O)Nc1ccc(S(=O)(=O)Nc2ncccn2)cc1 (stereo not drawn)	-16.4	-5.1	16.2%	-5.7	-5.4	0.0	0.4%
S=c1[nH]nc(COc2ccccc2)n1/N=C/c1ccncc1	6.9	-4.4	10.8%	14.9	1.9	·	1.7%

The listing continues.
molecule	Six1-Eya2 inh	D2 PAM	Sfp inh	TRPV1 PAM	D2 agonist	CtBP-E1A inh	PINK1 modulator
COc1ccccc1OCCNS(=O)(=O)c1ccc2oc3ccccc3c2c1	-9.4	2.9	8.4%	-1.4	-3.6	0.0	1.3%
COc1cccc(-c2nc(CS(=O)CC(=O)NCc3ccc4c(c3)OCO4)c(C)o2)c1 (stereo not drawn)	-1.4	-2.1	12.0%	-10.8	-1.5	7.3	0.2%
COc1ccc(CCNC(=O)CSCC(=O)Nc2cc(S(C)(=O)=O)ccc2Cl)cc1	-5.2	-3.5	·	·	-0.1	0.5	-2.1%
COc1ccc(C/C(N)=N/OC(=O)COc2ccccc2C)cc1	54.6	2.8	0.6%	-7.7	3.6	28.0	0.9%
COc1ccc(NC(=O)CCC(=O)Nc2cc(OC)c(NC(=O)c3ccco3)cc2OC)c(OC)c1	-72.1*	-0.1	-3.0%	13.0	-0.9	-87.4*	-0.2%
CC1C(=O)CCN(C(C)C)C1C (stereo not drawn)	1.4	2.7	11.3%	-1.5	-2.2	-0.1	2.6%
CCN(CC)c1ncnc2c1ncn2[C@H]1CN(Cc2ccc(OC)cc2)C[C@@H](CO)O1	1.0	-6.3	·	·	-6.3	-21.0	-0.1%
COc1cccc(-n2cc3c(=O)n(C)c(=O)n(C)c3c2)c1	-2.3	-3.2	-14.6%	-5.2	1.9	-9.3	8.0%
